# Bioassay records (PubChem BioAssay)
# Ecoli rRNA inh = selective bacterial rRNA inhibition in E. coli | E. coli WT GFP vs humanized-ribosome RFP mutants, fluorescence, 24 h; hits give low values; DMSO median 0, no signal -100 | GFP signal change (wild-type ribosome), % (test concentration not listed) | 1.6% of 350,000 active;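 active means significant combined selectivity score with lowered wild-type GFP, culture density cut under 30%, mutant RFP and density less affected; inactive means any of these conditions unmet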; further: one replicate is shown; some compounds called inactive have numbers as strong as hits
# MLL AF4-AF9 inh = inhibitors of human MLL-AF4/AF9 interaction. AlphaScreen, biotin-AF4 peptide binding to FLAG-AF9. 0.47% of 350,000 active. AID 651704. P42568. inhibition, % at 10 µM;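 active means every replicate reaching a set inhibition limit, whatever the replicate mean, cut at about 25% in these data; inconclusive means mean inhibition reaches that limit but some replicates miss it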;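 further: 0% = plate neutral control median and 100% = total signal loss; the record names both 10 and 1 µM as test concentration; the first replicate is given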
# Vif TR-FRET = inhibitors of Vif binding to APOBEC3G peptide, primary screen, biochemical, TR-FRET, GST-Vif 1-94, biotin-A3G peptide, dose response retest (AID 1117319). one-dose inhibition, %; IC50 in µM for titrated hits. 0.57% of 260,000 active. TR-FRET GST-Vif / biotin-A3G peptide binding; higher % means a stronger effect; test concentration not given here; strong numbers were not always called active;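 active means above the screen mean plus three standard deviations and confirmed in dose response; inconclusive means results disagree or hit not tested in dose response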;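 further: Vif residues 1-94 fused to GST binding biotinylated APOBEC3G peptide 110-148; 0% = full assay without inhibitor and 100% = GST in place of GST-Vif; retest series ran down from 100 µM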
# ALR inh = blocks human ALR sulfhydryl oxidase activity; purified ALR, DTT oxidation, H2O2 HRP-luminol luminescence; P55789; 3.8% of 290,000 active; AID 485317; inhibition, % (no concentration beside the values);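 active means mean and each replicate at 75% or more; inconclusive means only one of the two met; inactive means neither met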;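 further: stock transfer was 7.5 nL into about 7.5 µL; 0% = neutral wells and 100% = wells with inactivated enzyme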
# Target sequence (P55789 whole entry, looked up): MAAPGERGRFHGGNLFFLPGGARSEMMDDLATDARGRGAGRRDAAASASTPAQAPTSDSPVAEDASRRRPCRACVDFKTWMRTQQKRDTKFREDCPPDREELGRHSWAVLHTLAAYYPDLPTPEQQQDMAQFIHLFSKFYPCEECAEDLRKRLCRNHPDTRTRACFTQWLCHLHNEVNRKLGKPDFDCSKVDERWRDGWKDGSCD
# Ecoli growth = inhibitors of Escherichia coli growth. OD600, 23 h; hits give low values. OD600 absorbance (test concentration not listed). 0.21% of 330,000 active. AID 1053175;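 active means OD600 absorbance below the run mean of sample wells minus 3.6 SD, in any replicate, cut at about 0.56 in these data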;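 further: stock transfer was 300 nL into about 60 µL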
# FGF22 binding = binders of recombinant human FGF22 by thermal shift. Q9HCT0. SYPRO orange fluorescence; percent of sucrose octasulfate shift, DMSO zero. calls only at 9.99 µM. 1.5% of 340,000 active. AID 651658;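 active means melting point raised past a set limit in the mean and every replicate; inconclusive means no clear call; three in four hits are not shown here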
# Target sequence (Q9HCT0 whole entry, looked up): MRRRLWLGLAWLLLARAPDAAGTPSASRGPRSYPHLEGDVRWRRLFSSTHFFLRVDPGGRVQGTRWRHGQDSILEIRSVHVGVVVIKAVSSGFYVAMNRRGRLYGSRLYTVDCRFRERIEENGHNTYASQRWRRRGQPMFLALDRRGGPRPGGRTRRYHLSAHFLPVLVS
# HNF4A DNA FP = change in binding of human HNF4 alpha to DNA. AID 1224865. 0.3% of 360,000 active. activity change, % at 10 µM. HNF4a-FITC DNA binding, fluorescence polarization, 1 h. P41235; in the data active means activity change above about 30%, passing the limit was not always enough;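 further: controls were the assay level and a saturating level of protein; the project sought stronger binding though the title names inhibitors; some compounds called inactive have numbers as strong as hits; positive values seem to mean higher polarization but the record does not say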
# Target sequence (P41235 whole entry, looked up): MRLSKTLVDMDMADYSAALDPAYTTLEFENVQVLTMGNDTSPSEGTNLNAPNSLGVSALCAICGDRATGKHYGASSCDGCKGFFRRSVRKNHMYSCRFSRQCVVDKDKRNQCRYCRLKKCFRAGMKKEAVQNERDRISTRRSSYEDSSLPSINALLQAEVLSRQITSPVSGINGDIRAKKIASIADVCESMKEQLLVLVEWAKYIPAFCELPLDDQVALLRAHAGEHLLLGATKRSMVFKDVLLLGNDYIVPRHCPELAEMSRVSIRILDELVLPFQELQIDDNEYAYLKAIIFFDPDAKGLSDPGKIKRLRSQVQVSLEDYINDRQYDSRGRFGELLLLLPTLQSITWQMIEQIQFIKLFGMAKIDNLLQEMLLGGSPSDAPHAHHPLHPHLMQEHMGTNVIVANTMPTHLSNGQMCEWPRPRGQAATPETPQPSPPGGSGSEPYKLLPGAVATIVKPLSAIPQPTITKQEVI
# Ecoli rRNA inh OD600 = further read-out of Ecoli rRNA inh, marked with its call; OD600 change, %; measured here: OD600 growth;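 optical density of the mix in the first replicate; 0 = DMSO median and -100 = no signal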
# Ecoli rRNA inh RFP = recorded beside Ecoli rRNA inh, whose call it bears; RFP signal change, %; measured here: RFP humanized mutant strains;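 first replicate; 0 = DMSO median and -100 = no signal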
# * = called active by the depositor; i = inactive; u = inconclusive; x = not tested or not shown. Not all compounds are listed; rates above refer to the full screens.
Ecoli rRNA inh,Ecoli rRNA inh OD600,Ecoli rRNA inh RFP,MLL AF4-AF9 inh,Vif TR-FRET,ALR inh,Ecoli growth,FGF22 binding,HNF4A DNA FP,Structure
3,7,-1.9,-1.6,x,-6,0.7,i,4.1,O=C(Nc1c(Cl)cccc1Cl)C1CCN(C(=O)c2cccs2)CC1
19,9,4.2,-0.3,x,-12,0.71,i,0.3,O=C(Nc1cc([N+](=O)[O-])ccc1N1CCOCC1)c1ccco1
4,3,-0.4,7.0,-6%,-1,0.74,i,-0.1,Cc1c(Br)c([N+](=O)[O-])nn1CC(=O)NCCc1c[nH]c2ccccc12
10,16,3.5,5.8,21%,21,0.65,i,-2.8,COc1ccc(NCC(=O)Nc2ccc(Br)cc2F)c(OC)c1
9,2,-2.3,-0.2,x,-9,0.66,i,-0.1,c1ccc(CSc2ncn[nH]2)nc1
1,-2,6.0,2.0,x,-1,x,i,4.3,COc1ccc(-c2sc3cc4c(cc3c2C#CC2(N)CCCCC2)OCO4)cc1
-14,-1,1.3,14,>100µM*,x,0.65,i,0.3,Cc1ccc(N=Nc2ccc(N)cc2C)c(S(N)(=O)=O)c1
0,-1,-1.2,-0.1,x,x,x,i,x,CCS(=O)(=O)N1CC2(C1)[C@H](c1ccccc1)[C@@H](CO)N2CC1CCCC1
4,0,-0.1,-36,-8%,-3,0.72,i,-1.2,COc1ccccc1CNC(=O)C(=O)NCC(c1ccco1)N1CCOCC1 (centres undefined)
-13,-4,-1.7,1.8,-7%,48,x,i,1.0,CC(=O)/C(=N/Nc1ccc(Br)cc1)N1CCCc2ccccc21
-4,4,-3.8,-2.0,x,x,x,i,x,C[C@H](CO)N1C[C@H](C)[C@H](CN(C)C(=O)Nc2ccc(C(F)(F)F)cc2)OCCCC[C@H](C)Oc2ccc(NS(=O)(=O)c3cccs3)cc2C1=O
x,x,x,x,11%,-11,0.7,x,-0.5,O=C(C1CCCN(Cc2cccnc2)C1)N1CCCCC1 (centres undefined)
-6,-7,-5.0,-1.4,x,-5,0.72,i,-4.2,COC(=O)c1ccsc1NC(=O)CN1C(=O)CCC1=O
-15,0,3.5,x,x,-56,x,i,4.2,Cc1cc2ccc3ccccc3c2cc1CN(C)C
2,-3,1.6,-0.5,x,2,0.71,i,-1.2,CCCn1c(NC(=O)c2ccccc2Br)nc2ccccc21

# The closing 6 entries of the section before open the next one:
Ecoli rRNA inh,Ecoli rRNA inh OD600,Ecoli rRNA inh RFP,MLL AF4-AF9 inh,Vif TR-FRET,ALR inh,Ecoli growth,FGF22 binding,HNF4A DNA FP,Structure
-13,-4,-1.7,1.8,-7%,48,x,i,1.0,CC(=O)/C(=N/Nc1ccc(Br)cc1)N1CCCc2ccccc21
-4,4,-3.8,-2.0,x,x,x,i,x,C[C@H](CO)N1C[C@H](C)[C@H](CN(C)C(=O)Nc2ccc(C(F)(F)F)cc2)OCCCC[C@H](C)Oc2ccc(NS(=O)(=O)c3cccs3)cc2C1=O
x,x,x,x,11%,-11,0.7,x,-0.5,O=C(C1CCCN(Cc2cccnc2)C1)N1CCCCC1 (centres undefined)
-6,-7,-5.0,-1.4,x,-5,0.72,i,-4.2,COC(=O)c1ccsc1NC(=O)CN1C(=O)CCC1=O
-15,0,3.5,x,x,-56,x,i,4.2,Cc1cc2ccc3ccccc3c2cc1CN(C)C
2,-3,1.6,-0.5,x,2,0.71,i,-1.2,CCCn1c(NC(=O)c2ccccc2Br)nc2ccccc21
0,-2,-4.5,-1.0,x,x,x,i,x,COC(=O)[C@H]1[C@H](CO)[C@H]2Cn3c(ccc(-c4ccccc4)c3=O)[C@H]2N1S(C)(=O)=O
x,x,x,-2.9,x,x,x,i,-0.6,CCOC(=O)[C@]12CCCC=C1N(Cc1cccc3ccccc13)C(=O)[C@H](CC(=O)NCCCOC)C2
x,x,x,x,0%,5,x,x,1.2,CC1(c2ccc(Cl)c(Cl)c2)NC(=S)N2C1NC(=S)N2c1ccccc1 (centres undefined)
x,x,x,x,1%,-32,0.73,x,5.7,COCCn1c(C)cc(C2=NNC(=Nc3ccc(Cl)cc3Cl)SC2)c1C
x,x,x,x,-9%,-5,0.68,x,1.9,CCc1cc2c(=O)c(-c3cnn(-c4ccccc4)c3)coc2c(CN2CCOCC2)c1O
-2,-2,2.4,3.9,x,x,x,i,x,CO[C@H]1CN(C)C(=O)c2ccc(NC(=O)c3ccccc3F)cc2OC[C@@H](C)N(C(=O)c2ccccc2F)C[C@H]1C
4,7,2.4,-4.2,7%,-9,x,x,4.2,COc1ccc(/C=N/n2nnnc2N)cc1OC
4,9,0.6,0.1,-8%,x,0.64,i,-2.8,COc1ccccc1C(=O)Nn1c(C)nc2ccccc2c1=O
x,x,x,x,5%,3,0.73,x,-2.9,CC(Oc1ccc(F)cc1)C(=O)Nc1ccc2ccccc2c1 (centres undefined)
5,7,3.8,-0.6,x,43,0.73,i,-2.9,O=C(NCC(=O)N1CCN(c2ccccc2O)CC1)c1ccc2c(c1)OCO2
1,-2,0.7,1.5,x,x,x,i,x,C[C@@H]1CN([C@H](C)CO)C(=O)c2cccc(NC(=O)Nc3ccccc3)c2O[C@@H]1CN(C)CC1CCCCC1
x,x,x,x,u,x,0.65,x,1.1,CCCCn1nnnc1NCc1ccc(OC)c(OC)c1OC
3,6,-1.7,-0.4,x,2,0.67,i,-0.1,CC(Cn1cncn1)C(=O)N1CCN(S(=O)(=O)c2ccc(Cl)cc2)CC1 (centres undefined)
-4,-7,-0.9,0.4,x,x,x,i,x,COc1ccc(NC(=O)N(C)C[C@H]2Oc3ccc(NC(=O)Cc4cn(C)c5ccccc45)cc3C(=O)N([C@H](C)CO)C[C@@H]2C)cc1
-5,-3,-4.3,13,x,-3,x,i,0.0,CCOC(=O)[C@H]1[C@H]2COc3cc(OC)ccc3[C@@H]2N2C(=O)c3ccc(F)cc3NC(=O)[C@@]12C
6,15,-2.5,u,-10%,x,0.72,i,-0.1,Cc1cc(C)c2c(c1C)C(=O)CCC2
9,26,0.6,-1.8,7%,-13,0.62,i,1.3,CSc1nnc(-c2cccn(Cc3ccccc3)c2=O)o1
x,x,x,x,-5%,1,0.7,x,0.1,CCCCC(=O)Nc1c(C)cc(C)cc1Cl
x,x,x,x,-4%,-2,0.72,x,2.5,COc1cccc(N2C(=O)C(CC(=O)Nc3ccccc3)N(C3CCCCC3)C2=O)c1 (centres undefined)
-2,1,-0.7,2.1,1%,5,0.61,i,2.4,C=C(C)Cn1c(CN(C)Cc2ccccc2)nc2c1c(=O)n(C)c(=O)n2C
-1,1,-1.2,2.2,x,x,x,i,x,Cc1ccc(S(=O)(=O)N(C)C[C@@H]2OCCCC[C@@H](C)Oc3ccc(NC(=O)Nc4ccc(F)cc4)cc3C(=O)N([C@H](C)CO)C[C@H]2C)cc1
10,12,-1.3,0.4,-4%,x,0.66,i,1.1,COc1ccc(NS(=O)(=O)c2ccc3c(c2)CCN3C(=O)CCC(=O)O)cc1OC
1,0,0.8,0.6,x,x,x,i,x,COc1cccc(C#Cc2ccc([C@@H]3[C@@H](CO)N(C(=O)C4CC4)[C@H]3C#N)cc2)c1
4,5,-3.5,1.8,x,-2,0.68,i,1.0,COc1ccc(CN2CCC(=O)N(CCO)CC2)cc1OC
x,x,x,x,9%,x,0.71,x,-2.0,CC(C)OC(=O)c1cccc(NC(=O)c2ccccc2)c1
5,0,0.4,28*,x,x,x,i,-1.7,CC(C)(C)CC(C)(C)N=C1Nc2ccccc2NC12C[C@H]1CCC(=O)N3CC[C@@H](C2)[C@@H]13 (some centres undefined)
x,x,x,4.0,1%,-1,x,i,1.9,C/C(=N\Nc1nc2ccccc2s1)c1ccc(Br)s1
2,-5,4.8,8.6,-8%,99*,0.72,i,4.1,COCCNC(=S)Nc1ccc(N2CCCCC2)cc1
-35,-36,-10,6.7,4%,19,x,i,35*,CC(=O)c1sc(N/N=C\c2ccccc2O)nc1C
x,x,x,x,-4%,-6,0.73,x,-4.6,Cc1c(N(C)C)nc2ccccc2c1N
5,4,-0.1,-2.6,-5%,x,0.7,i,-1.8,O=C(Cc1ccc(NC(=O)C2CCCN(C(=O)C3CC3)C2)cc1)Nc1ccc(C(=O)N2CCOCC2)cc1 (centres undefined)
-57,-80,-26,5.0,x,24,x,i,2.8,NC1=NC[C@@H](Cc2ccc(O)cc2)N1CCc1cc(C(F)(F)F)cc(C(F)(F)F)c1
x,x,x,x,0%,-1,0.71,x,2.8,CCNc1nc2nonc2nc1NCC
x,x,x,x,x,0,0.69,x,0.3,COC(=O)c1ccc(C(=O)OC)c(NC(=O)COC(=O)c2ccc(OC)c(OC)c2OC)c1
1,-5,-0.8,-1.2,x,x,x,i,x,C[C@@H]1CN([C@@H](C)CO)C(=O)c2ccccc2-c2ccccc2CO[C@@H]1CN(C)Cc1ccccc1C(F)(F)F
x,x,x,x,-4%,1,0.65,x,3.4,Cc1c(CN(C)C)c2c(n1C)C(=O)c1ccc(Br)cc1-2
2,4,0.4,4.2,x,x,x,i,x,C[C@H](CO)N1C[C@H](C)[C@@H](CN(C)C(=O)Nc2ccc(F)cc2)Oc2c(NC(=O)CCCCCC(=O)Nc3ccccc3N)cccc2C1=O
x,x,x,x,-3%,-8,0.73,x,1.2,Cc1cc2ccccn2c1C(=O)c1nc(N2CCOCC2)ncc1Cl
5,-2,-7.4,-1.2,-11%,x,0.69,i,-0.3,Cc1ccc(NC(=O)c2ccc(CNc3c(N4CCC(C)CC4)c(=O)c3=O)cc2)cc1
-3,-2,-2.2,0.4,4%,-9,0.67,i,0.4,COc1ccc(-c2nc(SCC(=O)Nc3c(F)cccc3F)n[nH]2)cc1
1,3,-2.9,-7.2,u,2,0.68,x,-0.5,COc1ccc(-c2nc3c(-c4ccc(F)cc4)cnn3cc2C)cc1F
9,17,1.0,23,x,x,x,i,3.4,CCN(CC)CCN1CCN(c2cncc(-c3cccc(N)c3)n2)CC1
-7,-1,5.2,x,5%,0,x,i,1.4,O=C(Cc1cccc2ccccc12)N/N=C/c1ccc2cccc(O)c2n1
x,x,x,x,-2%,-6,0.69,x,1.9,CCOC(=O)N1CCN(S(=O)(=O)/C=C/c2ccccc2)CC1
9,10,-0.1,-1.7,x,0,0.71,i,5.6,O=C(CSc1nnnn1-c1ccc(Cl)cc1)NC1CCS(=O)(=O)C1 (centres undefined)
x,x,x,x,1%,-1,0.76,x,2.6,O=C1C(Cl)=C(NCC2CCCO2)C(=O)N1c1cccc(Cl)c1Cl (centres undefined)
10,7,-0.3,-0.9,1%,x,0.67,i,-0.3,COCCNC(=O)c1ccc(CS(=O)(=O)c2ccccc2C)o1
12,11,1.4,0.9,x,2,0.63,i,-0.8,Cn1c(CN2CCOCC2)nnc1SCC(=O)Nc1ccc([N+](=O)[O-])cc1O
x,x,x,x,3%,-8,0.69,x,-2.5,O=C(NC(Cc1ccccc1)c1ccc2c(c1)OCCCO2)c1ccccc1 (centres undefined)
11,6,0.7,-3.0,-11%,x,0.71,i,0.8,O=C(CNS(=O)(=O)c1ccc(Br)cc1)NCc1ccncc1
3,-21,12,-2.0,-3%,x,0.7,i,-1.4,CC(C)(C)c1ccc(OCCCC(=O)Nc2cccc(S(=O)(=O)N3CCOCC3)c2)cc1
-11,-4,1.7,-0.4,x,x,x,i,-0.8,CC(C)n1nnnc1C1c2ccccc2C(=O)N1Cc1cccc(F)c1 (centres undefined)
